Screening results: PubChem BioAssay, several laboratories
Mtb hypoxia inh – Mtb hypoxia fluorescent reporter inhibition. M. tuberculosis hypoxia-regulated fluorescent reporter, fluorescence. fluorescence inhibition, % (test concentration not listed). 0.1% of 300,000 active;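 active = 35 to 45% if threefold the growth effect, above 45% if 1.5-fold the growth effect; inactive = the rest, general growth blockers included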;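 also: wells of about 50 µL received 100 nL stock; 0% = vehicle wells and 100% = reference inhibitor wells; whole bacteria with a GFP reporter of the hypoxia response; strong numbers were not always called active; many hits fall short of the cut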
ugtP null kill – growth inhibition of S. aureus ugtP deletion strain. growth inhibition, % (test concentration not listed). 0.54% of 330,000 active. S. aureus RN4220 ugtP deletion, OD600 growth, 16 h; some inactives read as strong as hits. AID 1259309;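 active = z-score under -3 and OD600 up to 0.15 on both plates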;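 also: plate controls were untreated wells for no effect and antibiotic for full effect; wells of about 80 µL received 100 nL stock; the first replicate is given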
Sa RN4220 lethal – kills Staphylococcus aureus RN4220 | S. aureus RN4220 growth, OD600, 16 h | inhibition, % (concentration not given with the values) | 0.33% of 330,000 active | AID 1259311;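 active = z-score of -3 or lower and OD600 up to 0.18 on both plates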;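 also: plate controls were untreated cells for no effect and reference antibiotic for full effect; stock transfer was 100 nL into about 80 µL; one replicate is shown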
PrP 5UTR inh – suppresses PrP 5' UTR mRNA reporter expression; cell-based PrP 5' UTR mRNA reporter, plate reader; inhibition, % (no concentration beside the values); 0.35% of 340,000 active; AID 488862;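 active = every replicate at 50% or more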;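 also: 0 = median of the neutral control wells; tested in H4 reporter cells; numbers are from one replicate; inactives centre near -14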
BJeLR viability – BJeLR cell viability loss. 0.17% of 300,000 active. AID 1554. BJeLR (HRASV12) viability, CellTiter-Glo ATP luminescence, 48 h; reference of the scale not given here. inhibition, % (no concentration beside the values);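 active = replicate mean above 50%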;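 also: 50 nL library stock added to about 25 µL; numbers are from one replicate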
Autofluor counter – counter-screen for toxin protease inhibitors: compound fluorescence; fluorescence intensity (concentration not given with the values); compound autofluorescence counterscreen, microsphere flow cytometry; hits give high values; 3.1% of 360,000 active;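 active = at least 3 SD above the mean of all compounds, about 16000 in these data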;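 also: 100 nL of 1 mM stock went into each well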
Mtb hypoxia inh growth – recorded beside Mtb hypoxia inh, whose call it bears; growth inhibition, %; measured here: M. tuberculosis growth (absorbance);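 0% = vehicle and 100% = reference antibiotic; read after six days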
* = called active by the depositor; . = not tested or not shown.

SMILES | Mtb hypoxia inh | Mtb hypoxia inh growth | ugtP null kill | Sa RN4220 lethal | PrP 5UTR inh | BJeLR viability | Autofluor counter
CCOC(=O)c1cccc(NC(=O)CSc2nc3ccccc3c(=O)n2CC)c1 | 0 | 3 | 4 | 0.3 | -21 | -8 | 9775
Cc1ccc(-c2csc3ncn(Cc4ccc(C(=O)O)cc4)c(=O)c23)cc1C | -4 | 5 | 48 | 49 | -14 | 5 | 4442
CC(=O)N1c2ccc(S(=O)(=O)NCCC(=O)NCCc3cccc(C)c3)cc2CC1C (stereo not drawn) | 0 | -6 | 7 | 5.0 | -6 | -12 | 3839
COc1ccc(C(=O)NCC(=O)NCC(=O)OCc2ccc(Br)cc2)cc1 | -14 | -9 | 7 | -2.8 | -4 | -9 | 4550
Cc1ccc(-c2csc(NC(=O)Cc3cccs3)n2)cc1C | -1 | 3 | 0 | 0.6 | -64 | 2 | 2911
O=C(Nc1cnc2ccccc2c1)c1cccc(-n2cnnn2)c1 | 8 | 7 | -11 | 7.1 | -69 | 2 | 5989
NC(=O)c1ccccc1OCC(=O)Nc1ccc2c(c1)CCC2 | -2 | 3 | -4 | 0.6 | -32 | . | 7738
Fc1cccc(C=NNc2ccc3ccccc3n2)c1 | 2 | -12 | 5 | -1.4 | . | . | .
COc1ccccc1C(=O)CSc1nccn1C | -6 | 14 | 2 | -5.1 | -7 | -10 | 2878
C/C(=N/NS(=O)(=O)c1ccc(C)cc1C)c1ccc2c(c1)OCO2 | . | . | . | . | 1 | -2 | 4237
CCCCN(C(=O)C1=COCCO1)c1c(N)n(CCC)c(=O)[nH]c1=O | 8 | 2 | 7 | 2.7 | -8 | 9 | .
O=C(NC1CCCCCC1)C1c2ccccc2C(=O)N1CCCN1CCOCC1 (stereo not drawn) | 5 | 8 | 0 | 6.4 | 4 | -7 | 20267*
CC1CN(C(C)CO)C(=O)c2cccc(NC(=O)CCC(F)(F)F)c2OC1CN(C)S(=O)(=O)c1cccs1 (stereo not drawn) | 0 | 5 | 0 | 5.5 | . | . | .
Cc1cccc(-n2cc(C#N)c(=O)[nH]c2=O)n1 | 3 | 5 | -5 | 4.4 | -9 | -6 | 2246
CCOC(=O)c1c(N)sc(C(O)(C(F)(F)F)C(F)(F)F)c1-c1ccc(F)cc1 | -3 | 10 | 1 | 56 | -3 | -11 | 5963
Cc1ccc2c(c1)/C(=C/c1ccc(F)cc1)C(=O)N2 | 11 | 3 | -2 | 10 | -19 | 5 | 3810
CCC(=O)c1ccc(OCc2ccccc2)c(OC)c1 | 7 | 2 | 9 | 4.9 | -98 | -1 | 2081
Cc1ccc(NC(=S)NNC(=O)c2nnn(-c3ccccc3)c2C)cc1 | 4 | 2 | 6 | 0.9 | -20 | -11 | 2049
Cc1cc(C)c(C)c(S(=O)(=O)N2CCN(C(=O)c3ccncc3)CC2)c1C | 10 | 1 | 2 | 4.9 | 6 | . | 3629
N#CC(C(=O)Nc1ccccc1)=C1CCCCC1 | 17 | 2 | 0 | 5.3 | -22 | 6 | 9862
CSc1sc(C(=O)NN)c2c1C(O)CCC2 (stereo not drawn) | 6 | -4 | 2 | 3.5 | -12 | 3 | 4330
Cc1ccc(Cl)cc1NC(=O)CN1CCN(C(=O)C2CCCO2)CC1 (stereo not drawn) | 0 | 2 | 2 | 0.6 | -20 | 13 | 6201
O=C(NCCCn1ccnc1)C1CC(c2cccc(Br)c2)=NO1 (stereo not drawn) | 7 | 4 | -6 | 8.0 | -23 | -1 | 4291
COC(=O)CCN(Cc1ccccc1)S(=O)(=O)c1ccccc1Br | 3 | 7 | 2 | 5.0 | -32 | . | 4020
COc1cc(C(C)=NNC(=O)CSc2nncn2C)ccc1OCc1ccccc1Cl | 6 | -2 | -5 | 4.8 | . | . | .
CC(=NNP(=S)(c1ccccc1)c1ccccc1)c1ccc(O)cc1O | 11 | 7 | 7 | 11 | . | . | .
Cc1ccc(S(=O)(=O)N2CCOCC2)cc1NC(=O)COC(=O)c1cc(=O)[nH]c2ccccc12 | 3 | 11 | 3 | 18 | 1 | 6 | 3794
CN(C)C(CNC(=O)c1cc(S(=O)(=O)N2CCOCC2)ccc1Cl)c1cccs1 (stereo not drawn) | 12 | 8 | 1 | 6.8 | -29 | . | 4579
CC(=O)c1ccc(N2CCN(CC(=O)N(CC(C)C)c3c(N)n(CC(C)C)c(=O)[nH]c3=O)CC2)cc1 | 10 | 5 | 6 | 8.2 | -6 | 9 | 4183
COc1ccc(-c2cc(C(F)(F)F)n3nc(C(=O)N4CCN5CCCC5C4)cc3n2)cc1OC (stereo not drawn) | -14 | 11 | 8 | 3.6 | -8 | -1 | 3983
Cc1ccccc1NC(=O)NC1(C(=O)N2CCOCC2)CCCCC1 | 0 | 5 | 7 | 2.3 | 35 | 3 | 4673
Cc1[nH]c2ccccc2c1/C=N/NC(=S)NC(C)C | . | . | . | . | -15 | -15 | 7206
O=C(c1ccc2ncsc2c1)N1CCN(c2ccccc2Cl)CC1 | 4 | 4 | 5 | 14 | -11 | 15 | 3256

Another view of part of the listing above.
SMILES	Mtb hypoxia inh	Mtb hypoxia inh growth	ugtP null kill	Sa RN4220 lethal	PrP 5UTR inh	BJeLR viability	Autofluor counter
Cc1ccc(NC(=S)NNC(=O)c2nnn(-c3ccccc3)c2C)cc1	4	2	6	0.9	-20	-11	2049
Cc1cc(C)c(C)c(S(=O)(=O)N2CCN(C(=O)c3ccncc3)CC2)c1C	10	1	2	4.9	6	.	3629
N#CC(C(=O)Nc1ccccc1)=C1CCCCC1	17	2	0	5.3	-22	6	9862
CSc1sc(C(=O)NN)c2c1C(O)CCC2 (stereo not drawn)	6	-4	2	3.5	-12	3	4330
Cc1ccc(Cl)cc1NC(=O)CN1CCN(C(=O)C2CCCO2)CC1 (stereo not drawn)	0	2	2	0.6	-20	13	6201
O=C(NCCCn1ccnc1)C1CC(c2cccc(Br)c2)=NO1 (stereo not drawn)	7	4	-6	8.0	-23	-1	4291
COC(=O)CCN(Cc1ccccc1)S(=O)(=O)c1ccccc1Br	3	7	2	5.0	-32	.	4020
COc1cc(C(C)=NNC(=O)CSc2nncn2C)ccc1OCc1ccccc1Cl	6	-2	-5	4.8	.	.	.
CC(=NNP(=S)(c1ccccc1)c1ccccc1)c1ccc(O)cc1O	11	7	7	11	.	.	.
Cc1ccc(S(=O)(=O)N2CCOCC2)cc1NC(=O)COC(=O)c1cc(=O)[nH]c2ccccc12	3	11	3	18	1	6	3794
CN(C)C(CNC(=O)c1cc(S(=O)(=O)N2CCOCC2)ccc1Cl)c1cccs1 (stereo not drawn)	12	8	1	6.8	-29	.	4579
CC(=O)c1ccc(N2CCN(CC(=O)N(CC(C)C)c3c(N)n(CC(C)C)c(=O)[nH]c3=O)CC2)cc1	10	5	6	8.2	-6	9	4183
COc1ccc(-c2cc(C(F)(F)F)n3nc(C(=O)N4CCN5CCCC5C4)cc3n2)cc1OC (stereo not drawn)	-14	11	8	3.6	-8	-1	3983
Cc1ccccc1NC(=O)NC1(C(=O)N2CCOCC2)CCCCC1	0	5	7	2.3	35	3	4673
Cc1[nH]c2ccccc2c1/C=N/NC(=S)NC(C)C	.	.	.	.	-15	-15	7206
O=C(c1ccc2ncsc2c1)N1CCN(c2ccccc2Cl)CC1	4	4	5	14	-11	15	3256
